# Menin MLL FP FL – inhibitors of human menin-MLL interaction, wild-type MLL peptide; Fluorescence polarization, fluorescein-MLL peptide displacement from menin; AID 1766; 290,000 tested, under 10 active; FP activity change, % at 61.4 µM; inconclusive = falling polarisation curve, or a change in total fluorescence; inactive = total fluorescence flat and polarisation flat or rising; no compound was filed as active; the % refers to the polarisation; negative = inhibition;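 note: % of control where 0% means no effect; inhibitors lower the polarisation; unlabelled MLL peptide was the positive control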
# Sfp inh – inhibitors of Bacillus subtilis Sfp phosphopantetheinyl transferase | Potency, µM, inactives show max response, negative = inhibition, hits mostly inhibitors | AID 1490 | 310,000 tested, 3.5% active | Q9F4F7 | Biochemical Sfp PPTase activity, qHTS; active = well fitted inhibition curve with a large enough effect; inconclusive = small, poorly fitted or top-dose-only effect, or another doubt; inactive = no such curve, though single readings can be large or run the other way;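 note: the enzyme is Sfp with the accession as filed and its product quenches rhodamine fluorescence; potency is the fitted concentration of half-maximal effect; 0% = enzyme reaction without inhibitor and -100% = no enzyme wells; top concentration of the series not given in the record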
#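 Sfp 15 nM + cpd, 15 min RT; start w/ rhodamine-CoA 5 uM, BHQ-2-YbbR 12.5 uM (final); 50 mM Hepes pH 7.6, 10 mM MgCl2, 0.01% NP-40, 0.01% BSA; read 525/598 nm at 0 and 30 min.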
# PINK1 expr mod – modulators of PINK1 expression | 410,000 tested, 0.2% active | PINK1 immunofluorescence, high-content cytometry, 24 h | Potency, µM (series often up to 76.6 µM), for the others: at the top dose activation (PINK1 increase), usual class: activators; active = well fitted activation curve with a large enough effect; inconclusive = small, poorly fitted or top-dose-only effect; inactive = flat fitted curve, though single readings scatter; cell line not stated here;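 note: potency is the fitted concentration of half-maximal effect; % of control where 0% means no effect; nearly all actives have a fitted effect of over 65% in size; a mitochondrial uncoupler was the plate control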
#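 Compound titrations (5 concentrations, 24 h) on a stable cell line; DMSO and CCCP controls. Endpoint: fixed-cell PINK1 immunofluorescence with mitochondrial, cell and nuclear markers, scanned by microplate cytometer.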
# gsp agonist – agonists of gsp mutant (McCune-Albright syndrome); AID 624287; Potency, µM (top dose mostly 76.9 µM), inactives show top-dose activation (cAMP increase), usual class: activators; gsp mutant cells, cAMP HTRF, 30 min; control for the full effect not named in the record; 340,000 tested, 0.13% active; active = well fitted activation curve with a large enough effect; inconclusive = small, poorly fitted or top-dose-only effect, or another doubt; inactive = no such curve, though single readings can be large or run the other way; cell line not stated here;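 note: phosphodiesterase inhibitor Ro 20-1724 added with compounds to block cAMP breakdown; potency is the fitted concentration of half-maximal effect; nearly all actives have a fitted effect of over 60% in size; about a fifth of the inactives were tested at one dose only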
#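 Cells in DMEM/10% FBS with G418 were pretreated with compounds in DMSO plus […] (300 uM stock) for 30 min at 37C. cAMP was measured by HTRF (cAMP-d2 plus anti-cAMP antibody-K) after 30 min at room temperature.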
# D2 ag – human D2 receptor agonism in beta-arrestin assay; 360,000 tested, 0.084% active; DiscoveRx PathHunter D2 beta-arrestin, luminescence, 90 min; 100% = 57 uM dopamine signal; AID 624465; P14416; activation, % (test concentration not listed); in the data active = activation above about 40%; inconclusive = about 15% to 40%; inactive = below about 15%; note: compound concentration not given in the record; the text of the record calls up to 30% inactive
# Target sequence (P14416 whole entry, looked up): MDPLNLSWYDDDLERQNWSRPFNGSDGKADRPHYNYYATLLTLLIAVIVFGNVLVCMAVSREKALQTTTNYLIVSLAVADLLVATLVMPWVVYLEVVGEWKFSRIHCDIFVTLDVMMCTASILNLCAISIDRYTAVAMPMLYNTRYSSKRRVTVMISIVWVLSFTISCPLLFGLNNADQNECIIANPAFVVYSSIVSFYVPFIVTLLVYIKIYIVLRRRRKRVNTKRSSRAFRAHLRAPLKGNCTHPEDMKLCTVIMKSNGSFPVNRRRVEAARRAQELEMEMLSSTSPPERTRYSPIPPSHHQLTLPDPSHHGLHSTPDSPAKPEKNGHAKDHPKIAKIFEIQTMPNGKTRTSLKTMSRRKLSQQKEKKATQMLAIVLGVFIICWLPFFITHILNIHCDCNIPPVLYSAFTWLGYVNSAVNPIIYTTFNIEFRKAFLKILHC
#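 DiscoveRx PathHunter D2 beta-arrestin cells (2,100/well) attached overnight, then compound-stimulated 90 min at 37 C in HBSS/10 mM HEPES/0.1% Tween-20 buffer; beta-galactosidase complementation read by luminescence after 1 h at ambient temperature. Dopamine 57 uM final (EC100) as control.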
# ClpP mod – qHTS Assay for Activators of ClpP | ATP-dependent Clp protease proteolytic subunit (Bacillus subtilis (strain 168)), P80244 | purified B. subtilis ClpP, FRET peptide cleavage, 20 min | Potency, µM (doses to about 57.5 µM), inactives show top-dose activity change, negative = active | 340,000 tested, 1.9% active | AID 651965, 2013; active = well fitted falling curve with a large enough effect; inconclusive = small, poorly fitted or top-dose-only effect; inactive = no such curve, though single readings can be large or run the other way; note: potency is the fitted concentration of half-maximal effect; the source files actives as falling curves though it sought activators and does not explain the sign; nearly all actives have a fitted effect of over 65% in size; many hits overshoot -100%
# Target sequence (P80244 whole entry, looked up): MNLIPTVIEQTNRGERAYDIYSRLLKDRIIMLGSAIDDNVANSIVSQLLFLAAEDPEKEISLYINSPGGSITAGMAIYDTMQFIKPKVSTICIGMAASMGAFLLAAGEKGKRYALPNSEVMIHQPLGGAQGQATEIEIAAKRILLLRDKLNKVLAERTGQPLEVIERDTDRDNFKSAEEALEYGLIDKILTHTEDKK
#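 FRET quenching reversal measured ClpP activation: 10 microg/mL B. subtilis ClpP at pH 8 with the FRET-FV decapeptide, read at 430 nm after 320 nm excitation. The 20-min minus 0-min signal was scaled between DMSO/no-enzyme wells and ADEP (5.8 microM final).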
# gsp antagonist – gsp mutant antagonism | gsp-mutant cells, cAMP HTRF, 30 min; control for the full effect not named in the record | Potency, µM (top dose mostly 76.9 µM), without a hit: top-dose activity change, negative = inhibition, most hits filed as inhibitors | 340,000 tested, 0.4% active | AID 624288; active = falling curve of any shape with a large fitted effect; inconclusive = falling curve, mostly with a smaller effect; inactive = flat or rising curve; cell line not stated here;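 note: intracellular cAMP measured with PDE inhibitor Ro 20-1724 present during compound exposure; potency is the fitted concentration of half-maximal effect; % is set by controls: 0 for no effect and ±100 for the full control effect; nearly all actives have a fitted effect of over 65% in size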
#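 Cells, 2000/well, grown 16–24 h in DMEM 10% FBS with 0.5 mg/ml G418, then compounds plus […] (300 uM addition stock), 30 min at 37C. cAMP read by HTRF (cAMP-d2 and anti-cAMP antibody-K in lysis buffer) after 30 min RT.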
# * hit, by the source's call; ? = inconclusive; . = not tested or not shown; [ ] = dose if it differs, or a comment.
SMILES,Menin MLL FP FL,Sfp inh,PINK1 expr mod,gsp agonist,D2 ag,ClpP mod,gsp antagonist
CCc1ccc(C(=O)CN2C(=O)NC(C)(c3ccc(C)cc3)C2=O)cc1 (stereo unspecified),-0.6,5%,0.2%,-8%,-1.7,-0.6%,-6%
COc1ccc(CN(C(=O)c2nsc(Cl)c2Cl)C(C(=O)NC2CCCCC2)c2ccc(OC)cc2)cc1 (stereo unspecified),-0.6,24%,4.1%[38.3 µM],-15%,0.7,0.5%,-1%
CCC(C)n1c(SCC(=O)Nc2cc(C(C)(C)C)nn2-c2ccccc2)nc2ccccc2c1=O (stereo unspecified),1.0,-8%,6.4%,-21%,-2.3,-0.4%,-36%
CC(=O)NC1(c2ccc(F)cc2)CCN(C(=O)Nc2ccc(F)cc2F)CC1,1.0,19%,3.4%,-35%[inhibitor],-1.4,0.5%,-2%
COc1cc(/C=C2\C(=O)N(C)C(=S)N2C)ccc1O,?,-9%,6.4%,-2%,-1.1,1.9%,3%
CC(C)Nc1nc(Nc2ccc(C#N)cc2)c2sccc2n1,.,.,1.4%,.,-1.7,4.9%,.
CC1CCN(S(=O)(=O)c2ccc(C(=O)NNC(=O)C3CC3)cc2)CC1,-4.7,0%,1.2%,-17%[15.4 µM],-2.5,.,11%
c1ccc(OCCNc2ccn3nc(-c4ccccc4)cc3n2)cc1,.,.,-1.2%,.,10,4.5%,.
Cn1c(=O)c2c(ncn2CC(=O)OCC(=O)Nc2ccc(F)cc2Cl)n(C)c1=O,.,.,0.1%,11%[15.4 µM],-3.5,-0.5%,2%
O=[N+]([O-])c1ccc(N/N=C/c2cccc(O)c2)cc1,?,-12%,0.2%,1%,-1.7,.,5%
COc1ccc(CN2CCNC(=O)C2CC(=O)NCCCC2CCCC2)c(C)c1C (stereo unspecified),9.1,1%,0.5%,5%[15.4 µM],4.9,-0.7%,8%
CS(=O)(=O)N(CC(=O)Nc1ccccc1F)C1CCCCC1,-3.1,8%,4.7%,-14%,-3.4,-0.4%,9%
Cc1cc(C)cc(NC(=O)C2CCN(c3cnccn3)CC2)c1,-4.4,10%,1.2%,2%,-7.6,-23%,-16%
C=CCNC(=O)CN1CCN(C(c2ccccc2)c2ccccc2)CC1,0.1,-18%,1.1%,2%,-5.4,-0.7%,1%
CC1CC(C)CN(CCCNC(=O)Cn2ncn3cccc3c2=O)C1 (stereo unspecified),1.1,13%,1.2%,-34%[inhibitor],-0.8,1.5%,12%
COCCn1c(=O)c(-c2ccc(OC)cc2)nc2cnc(N3CCOCC3)nc21,?,21%,0.5%,.,.,.,.
CCNC(=S)NNC(=O)c1cc(C)nc2ccccc12,-1.1,23%,-1.7%,11%[15.4 µM],-11,-2.4%,4%
CCn1c(=O)c([N+](=O)[O-])c(NCCc2ccc(OC)c(OC)c2)c2ccccc21,3.2,0%,1.2%,2%,0.6,1.4%,-18%
CC(C)[C@H](NC(=O)c1ccccc1F)C(=O)OCCN1C(=O)c2ccccc2C1=O,.,.,-1.0%,0%,-0.7,-1.9%,-8%
CC(=O)N(C)c1ccc(NC(=O)c2ccccc2C(=O)O)cc1,-2.4,8%,3.4%[38.3 µM],-11%,-0.7,7.6%,6%
COc1cc2sc3ccc(-c4ccc(CN5CCOCC5)cc4)cc3c(=O)c2cc1OC,.,.,0.1%,-28%,8.4,?,-7%
Cc1ccc(C(=O)NCC(c2ccco2)N2CCc3ccccc32)cc1 (stereo unspecified),.,.,1.8%,11%,-2.9,-1.2%,-4%
CN1CCN(C(=O)C[C@@H]2C[C@H]3c4cc(NC(=O)c5cccnc5)ccc4O[C@H]3[C@H](CO)O2)CC1,.,.,-0.2%,-82%[inhibitor],-10,2.7%,.
CC1CC(C)CN(c2ncc3c(n2)CC(c2ccc(Cl)cc2)CC3=O)C1 (stereo unspecified),-1.2,17%,-1.3%[38.3 µM],3%,0.2,-6.8%,32%[activator]
CCN(C(=O)CSc1nnc(-c2cccs2)n1N)c1c(N)n(Cc2ccccc2)c(=O)[nH]c1=O,.,.,3.6%,-81%[inhibitor],-0.5,35µM*,8%
Cc1cc(C(F)(F)F)nc(SCCN2CCOCC2)c1C#N,?,-26%,-0.2%,10%[15.4 µM],-2.6,.,-15%
CCN1CCN(CCOc2ccccc2-c2ccccc2)CC1,1.3,-30%,-0.1%,-7%,-5.1,-4.6%,11%
CCN(CC(=O)Nc1cc(S(=O)(=O)N2CCCCC2)ccc1Cl)Cc1ccccc1,.,.,0.0%,6%,0.6,-3.0%,-3%
CN1CCCC(OC(=O)c2ccccc2Br)C1 (stereo unspecified),-4.7,1%,-0.1%,-25%,0.2,3.0%,6%
CCCNCCC(c1ccco1)c1ccccc1OC (stereo unspecified),7.6,-17%,-2.0%,26%,1.2,-0.2%,-1%
Cc1cccc(OCCSc2ncnc3nc[nH]c23)c1,5.6,9%,-0.8%,13%,0.2,-5.4%,?
CC(C)CNC(=O)c1ccccc1NC(=O)CCSc1ccccc1,3.3,4%,3.0%,-4%,1.7,.,-5%
CC(=O)Nc1cccc(OCc2cccc([N+](=O)[O-])c2)c1,.,.,0.6%,-15%,1.6,1.1%,2%
COC(=O)C1=C(N)Oc2cc(C)[nH]c(=O)c2C1c1ccccc1OC (stereo unspecified),6.1,18%,-1.7%,3%[15.4 µM],9.7,.,-2%
COc1ccc(-c2ncn(CCC#N)c2[N+](=O)[O-])cc1,1.3,-13%,0.6%,-18%,5.2,.,5%
CC(C)c1cc(O)c(-c2ccccc2)c(=O)n1-c1ccc(Cl)cc1,3.2,20%,-1.1%,11%,-0.4,.,3%
Cn1c(C(=O)NC2CCCCC2)cc2c(=O)n3ccccc3nc21,.,7%,1.0%,?,4.0,-22%,-5%
O=C(CN1CCN(S(=O)(=O)c2ccc(Cl)cc2)CC1)NC1CCCC1,.,1%,1.0%,4%,-0.4,-4.2%,-1%
COc1ccc2nc(NC(=O)C3CCN(C(=O)c4ccco4)CC3)sc2c1,-3.6,4%,1.7%,11%[15.4 µM],0.2,.,-13%
O=C(N/N=C/c1ccc(F)c(F)c1)c1cc2c(s1)-c1ccccc1CC2,-0.6,0%,5.1%,6%,-1.0,32µM*,-1%
O=C(O)c1ccccc1-c1ccccc1C(=O)Nc1ccc2c(c1)C(O)c1ccccc1-2 (stereo unspecified),.,.,0.5%,-9%,-7.8,-1.9%,.
O=C(COC(=O)/C=C/c1cccc(Cl)c1)NC1CCCC1,.,.,1.8%,-28%,0.9,0.5%,18%
COc1ccc(-c2nnc(SC(C(=O)c3c[nH]c4ccccc34)c3ccccc3)n2N)cc1OC (stereo unspecified),6.5,-5%,-0.8%,-5%[15.4 µM],-5.7,-3.6%,-11%
Cc1cc(N)n(-c2ccc([N+](=O)[O-])cc2)n1,0.6,18%,0.0%,-1%[15.4 µM],-1.8,.,6%
CCn1nc(C)cc1C(=O)n1nc(C)c(Sc2ncccn2)c1C,1.2,9%,1.5%,3%[15.4 µM],3.8,-26%,5%
C[C@H](CO)N1C[C@H](C)[C@@H](CN(C)Cc2ccc3c(c2)OCO3)Oc2ccc(NS(C)(=O)=O)cc2C1=O,.,.,0.1%,.,-2.5,-1.7%,5%
Cc1cc(NS(=O)(=O)c2ccc(NC(=O)Cc3ccc([N+](=O)[O-])cc3)cc2)no1,0.9,0%,-0.3%,-8%,-2.8,-4.6%,6%
COc1ccc(/C(N)=N/OC(=O)c2cc(-c3ccccc3)nc3ccccc23)cc1,1.6,15%,3.0%,?,-1.5,-2.3%,5%
COc1ccc(-c2sc3ccc(OC)cc3c2-c2ccc(OC)nc2)cc1,.,.,1.5%,16%,-3.5,?,-21%
CCCN(CC1CCCO1)C(=O)c1cc(COc2ccc(F)cc2F)on1 (stereo unspecified),-4.2,9%,1.9%,24%,-4.4,0.6%,-14%
O=C(CSc1nnc(COc2ccccc2)n1Cc1ccco1)NCc1ccco1,9.3,-27%,-5.7%[38.3 µM],-39%[inhibitor],1.2,-3.3%,-9%
CN(c1ccccc1)S(=O)(=O)c1cccc(NC(=O)CCNC(=O)c2ccccc2)c1,.,.,1.9%,8%,-2.7,-1.2%,?
Cc1ccc(NC2=C(C(=O)c3ccccc3)N(C)S(=O)(=O)c3ccccc32)cc1,5.7,-3%,-0.8%,-12%,-4.5,1.5%,-13%
CCC(=O)c1ccc(OCC(=O)N2CCN(C(=O)c3ccccc3)CC2)cc1,.,.,2.2%,-6%,-2.1,0.9%,9%
COc1ccc(/C=N/NC(=O)c2ccc(N(C)S(=O)(=O)c3ccccc3)cc2)cc1OC,4.8,13%,-0.6%,22%[15.4 µM],-1.9,.,-11%
Cc1cc(C)n(-c2ccc(C(=O)OCC(=O)NCc3ccco3)cc2)n1,5.6,12%,-0.1%,-1%,0.6,0.0%,1%
Cc1ccc(OCC(=O)Nc2ccc(S(=O)(=O)N3CCCCC3)cc2)c([N+](=O)[O-])n1,-0.3,7%,-0.3%,2%,1.7,.,-19%
O=C(COC(=O)Cc1ccc(Br)cc1)NCc1cccs1,.,.,0.1%,4%[15.4 µM],1.5,0.8%,1%
c1cncc(-c2nnc(-c3ccco3)o2)c1,-0.4,20%,1.2%[38.3 µM],-6%,-0.9,3.5µM*,-3%
c1ccc(-n2cc(CN3CCC(N4CCOCC4)CC3)c(-c3ccc4c(c3)OCO4)n2)cc1,-0.1,1%,0.3%,8%,-3.3,.,4%
Cc1cc(NC(=O)CSc2nnc(C)o2)no1,.,-14%,2.6%,?,-1.3,0.2%,0%
O=C(Nc1ccc(F)cc1F)c1ccc(S(=O)(=O)N2CCCCC2)cc1,.,23%,7.7%,-52%[inhibitor],-6.4,1.0%,-4%

# Screening results deposited in PubChem by National Center for Advancing Translational Sciences (NCATS).
